AmpC nodet inh: Promiscuous and Specific Inhibitors of AmpC Beta-Lactamase (assay without detergent); P00811; AmpC nitrocefin hydrolysis, absorbance 480 nm, no detergent; potencies from a single point are estimates; Potency, µM (highest dose often 28.7 µM), for the others: at the top dose activity change, negative = inhibition; hit rate 1.8% among 71,000; active = falling curve, for most hits resting on a single point; inconclusive = weak or doubtful change; inactive = flat or rising curve; also: % of control where 0% means no effect; about half of the hits show no inhibition at the top dose; a quarter of the inactives give rising signals
Target sequence (P00811 whole entry, looked up): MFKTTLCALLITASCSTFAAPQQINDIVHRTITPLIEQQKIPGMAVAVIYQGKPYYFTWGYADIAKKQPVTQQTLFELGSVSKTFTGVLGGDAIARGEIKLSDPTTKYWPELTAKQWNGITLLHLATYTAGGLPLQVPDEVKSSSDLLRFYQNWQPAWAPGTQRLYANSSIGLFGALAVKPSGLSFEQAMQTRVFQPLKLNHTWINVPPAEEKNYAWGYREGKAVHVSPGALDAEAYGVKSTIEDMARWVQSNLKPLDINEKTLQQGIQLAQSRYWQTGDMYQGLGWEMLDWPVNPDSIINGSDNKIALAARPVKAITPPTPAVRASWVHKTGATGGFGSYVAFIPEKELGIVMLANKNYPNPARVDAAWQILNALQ
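AmpC in 20 mM phosphate buffer pH 7.0 was preincubated 15 min at room temperature with compounds. Nitrocefin (800 uM stock) was then added and hydrolysis followed at 480 nm every 20 s for 4 min.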
* marks the source's active call; other numbers are inactive results; [ ] = dose if it differs, or a comment. Potency is read from the fitted curve at half-maximal effect.

SMILES	AmpC nodet inh
CCC(=O)O[C@@](Cc1ccccc1)(c1ccccc1)[C@@H](C)CN(C)C	16%[12.8 µM]
Cc1ccccc1-c1cc(NCc2cccnc2)ncn1	14%
CC(=O)NCCNc1ncnc2ccc(-c3cccc(NS(C)(=O)=O)c3)cc12	-16%
Cc1ccc(NS(=O)(=O)c2ccc(C(=O)N3CCCN(C)CC3)cc2)cc1	5%
CCOC(=O)C1=C(N)OC2=C(C(=O)CC(C)(C)C2)C1c1cccnc1 (stereo not drawn)	6%
COc1ncc2nc(-c3ccc(F)cc3)c(=O)n(C[C@H]3CCCO3)c2n1	15%
O=C(c1ccccc1)N1CCN(c2ccc(Cl)cc2)CC1	42%
CC(=O)c1c(C)[nH]c(C(=O)OCC(=O)Nc2cc(C)on2)c1C	-2%
Cc1cc(NC(=O)CCC(=O)N(Cc2ccco2)C2(C(=O)NC3CCCCC3)CCN(C)CC2)no1	26%
O=C(COC(=O)c1ccc2c(c1)OCO2)NCc1ccc(Cl)cc1	-8%
Cc1cccn2c(=O)c3cc(C#N)c(=N)n(Cc4cccnc4)c3nc12	-10%
CCS(=O)(=O)c1ccc2oc(Nc3ccccc3C)nc2c1	0%
COC(=O)[C@H](Cc1ccccc1)NC(=O)[C@@]1(C)C[C@@H]1[C@@H](NC(=O)OCc1ccccc1)c1ccccc1	36%
COC(=O)C1=[N+]([O-])OC(C(=O)OC)C1c1c[nH]c2ccccc12 (stereo not drawn)	5%
O=C(CNS(=O)(=O)c1cccs1)N1CCN(c2ccccn2)CC1	0%
CCn1c2ccccc2c2nnc(SCC(=O)N3CC(C)OC(C)C3)nc21 (stereo not drawn)	56%
CC(=O)n1nc(-c2ccco2)nc1N	2%
Cc1c(Cl)cccc1N(CC(=O)NC1CCCCC1)S(C)(=O)=O	32%
CC1CCCCN1S(=O)(=O)c1ccc(NC(=O)CSc2nnnn2C)cc1 (stereo not drawn)	-12%
c1ccc2c(c1)nnn2Cc1nnc2sc(-c3ccncc3)nn12	-2%
O=C(NCCN1CCNCC1)c1ccccn1	-4%
COC(=O)c1ccc(C)c(NC(=O)CN(c2ccc3c(c2)OCO3)S(C)(=O)=O)c1	10%
Cc1nc2ccccn2c1P(=O)(N1CCCCC1)N1CCCCC1	17%
COc1ccc(OC)c(C2C(C(=O)O)c3ccccc3C(=O)N2C)c1 (stereo not drawn)	-6%
CC(=O)Nc1nc2ccccc2n1CCOc1ccccc1	19%

4 structures out of the list, sorted by SMILES length, smallest number first:
SMILES	AmpC nodet inh
CCOC(=O)C1=C(N)OC2=C(C(=O)CC(C)(C)C2)C1c1cccnc1 (stereo not drawn)	6%
Cc1ccc(NS(=O)(=O)c2ccc(C(=O)N3CCCN(C)CC3)cc2)cc1	5%
COC(=O)C1=[N+]([O-])OC(C(=O)OC)C1c1c[nH]c2ccccc12 (stereo not drawn)	5%
COC(=O)[C@H](Cc1ccccc1)NC(=O)[C@@]1(C)C[C@@H]1[C@@H](NC(=O)OCc1ccccc1)c1ccccc1	36%

Going on with the list.
SMILES	AmpC nodet inh
O=C(NCc1ccco1)C(c1cccs1)N(C(=O)Cc1cccs1)c1ccccc1 (stereo not drawn)	0%
Cc1cccc(-c2cc3nc4c(c(N5CCC6(CC5)OCCO6)n3n2)CCCC4)c1	100%
CCN(CC)CCCNC(=O)C1c2ccccc2C(=O)N1Cc1ccc(C)cc1 (stereo not drawn)	5%
Cc1ccc2oc(=O)c3cnn(CC(=O)N4CCCc5ccccc54)c3c2c1	36%
CCCC(=O)NCCCc1nc2ccccc2n1CCC	5%
COc1ccc(CSc2nc(N3CCOCC3)c3c(c2C#N)CC(C)(C)OC3)cc1	57%
O=C(C(Cc1ccccc1)n1cccc1)N1CCN(c2ncccn2)CC1 (stereo not drawn)	27%
S=c1[nH]nc(CSc2nc3ccccc3s2)o1	-11%
O=P(O)(OP(=O)(O)c1ccccc1)c1ccccc1 (tested in a mixture with another compound)	-4%[5.75 µM]
CC(C)(N)C(=O)N[C@@H]1C(=O)N2[C@@H]1SC(C)(C)[C@H]2C(=O)O	0.5µM*
CCOC(=O)C1CCN(C(=O)CCCN2C(=O)c3ccccc3C2=O)CC1	18%
COc1ccccc1Nc1nc(N)nc(CN2CCN(c3ccccc3)CC2)n1	63%
COc1ccccc1CNC(=O)c1ccoc1C	26%
O=C(NCCN1CCOCC1)C1CCN(Cc2ccccc2O)CC1	-10%
c1coc(-c2nnc3n2C2(CCCC2)Cc2ccccc2-3)c1	20%
CC1=C(C)CS(=O)N(S(=O)(=O)c2ccc(Cl)cc2)C1 (stereo not drawn)	-12%
CCCn1c(SCC(=O)Nc2ccccc2-c2ccccc2)nnc1-c1ccoc1C	46%
CC(=O)Nc1ccc(C(=O)OCC(=O)NC(=O)NC2CCCCC2)cc1	-5%
Cc1ccccc1CN1C2=NCCN2C(=O)C2=C1CCN(Cc1ccccc1)C2	33%[5.75 µM]
Fc1ccc(-c2cc(C(F)(F)F)nc(N3CCCCC3)n2)cc1	-8%
CCC1C(C#N)=C(N)OC2=C1C(=O)CC(C)(C)C2 (stereo not drawn)	-5%
CCOC(=O)CSc1nc(C)c(C(=O)OCC)s1	17%
Cc1cccn2c(=O)c3cc(C(=O)N4CCc5ccccc54)n(C)c3nc12	22%
C=CCc1ccccc1OCC(O)CN1CCN(c2ccccc2OC)CC1 (stereo not drawn)	66%
Nc1ncn([C@@H]2O[C@H](CO)[C@@H](O)[C@H]2O)c(=O)n1	-2%

New compounds follow.
SMILES	AmpC nodet inh
Cc1noc(C)c1C(=O)N1CCC2(CCCN(C(c3ccccc3)c3ccccc3)C2)CC1	122%
Cc1cccc(-c2nsc(SCC(=O)N3CCCC3)n2)c1	65%
Cc1ccc(C)c(Cn2c(=O)n(CCC(=O)NCc3ccco3)c(=O)c3sccc32)c1	4%
COc1ccc(Cn2c(=O)sc3ccccc32)cc1OC	45%
O=C(NCC1CCCO1)c1cc2n(n1)C(C(F)(F)F)CC(c1ccc(Br)cc1)N2 (stereo not drawn)	95%
Cc1ccc(C)c(NC(=O)CSc2nnc(-c3ccccc3)n2N)c1	-5%
COc1cccc(Cn2c(-c3nonc3N)nc3ccccc32)c1	-11%
C1CCC2=NCCCN2CC1	1%
Cc1noc(C)c1C(=O)Nc1c(F)cc(F)cc1Br	-5%
CCOC(=O)Nc1ccc2c(c1)N(C(=O)CCN1CCN3CCCC3C1)c1ccccc1CC2 (stereo not drawn)	62%
CCS(=O)(=O)N1CCCC(C(=O)NC2CCC(C)CC2)C1 (stereo not drawn)	6%
CC(=O)Nc1ccc(-c2ccccc2)s1	-6%
CCc1nc2ccccc2c(C(=O)OCC(=O)NCc2ccco2)c1C	6%
CC(=O)Nc1cc(C(N)=O)c(Cl)cc1Cl	12%
COCCn1c(SCC(=O)c2ccc3c(c2)OCCO3)nnc1C(C)C	27%
c1ccc(-c2cc(-c3nc(-c4cccnc4)no3)c3ccccc3n2)cc1	-4%
COc1cccc(C(=O)c2cc3ccc(O)cc3oc2=O)c1	-9%
Cc1cc(C)cc(C(=O)N2CCC(C(N)=O)CC2)c1	5%
N#Cc1cnn(Cc2ccccc2)c1/N=C/N1CCOCC1	0%
COCCNC(=O)C(OC(=O)c1ccco1)c1ccccc1OC (stereo not drawn)	-1%
CC(C)Cc1ccc(/C(=N/O)C(=O)O)s1	7%
O=C(O)C=Cc1ccc(Cn2ccnc2)cc1	-3%
CCc1nnc(NC(=O)c2ccc(S(=O)(=O)N3CCCCCC3)cc2)s1	-14%
CCOc1ccccc1-c1nc(C(N)=O)c2[nH]c(=O)n(-c3ccccc3)c2n1	21%
Cc1c(C(=O)Nn2cnnc2)oc2ccccc12	-2%

Seven records drawn at random from those above, as already listed:
SMILES	AmpC nodet inh
CC(=O)Nc1ccc(-c2ccccc2)s1	-6%
Cc1c(C(=O)Nn2cnnc2)oc2ccccc12	-2%
COc1ccc(Cn2c(=O)sc3ccccc32)cc1OC	45%
COCCNC(=O)C(OC(=O)c1ccco1)c1ccccc1OC (stereo not drawn)	-1%
O=C(O)C=Cc1ccc(Cn2ccnc2)cc1	-3%
Cc1noc(C)c1C(=O)Nc1c(F)cc(F)cc1Br	-5%
COc1cccc(C(=O)c2cc3ccc(O)cc3oc2=O)c1	-9%

(cont.)
SMILES	AmpC nodet inh
COc1ccc2c(=O)c(C(=O)NCCc3ccc(OC)c(OC)c3)c[nH]c2c1	81%
N#Cc1ccc(CN2CC[C@@]3(CCCN(C(=O)c4cc(C(F)(F)F)cc(C(F)(F)F)c4)C3)C2)cc1	119%
Cc1ccc(Cl)cc1NC(=O)C1CCCN(S(=O)(=O)c2c(C)noc2C)C1 (stereo not drawn)	5%
COc1ccccc1OCCOCCn1cnc2ccccc2c1=O	28%
C=CCNC(=O)CSc1nc2sc(C)c(C)c2c(=O)[nH]1	4%
COC(=O)c1ccc(C2C(C#N)=C(C)NC3=C2C(=O)CC(C)(C)C3)cc1 (stereo not drawn)	8%
CCCC(C)(COC(N)=O)COC(=O)NC(C)C (stereo not drawn)	2%
COc1ccc2oc(=O)c(NC(=O)C3CCCCC3)cc2c1	-1%
NC[C@@H]1O[C@H](O[C@@H]2[C@H](O[C@@H]3O[C@H](CO)[C@@H](COC[C@H]4O[C@@H](CN)[C@@H](O)[C@@H](O)[C@@H]4N)[C@@H]3O)[C@@H](O)[C@@H](N)C[C@H]2N)[C@@H](N)[C@H](O)[C@@H]1O	-7%[12.8 µM]
O=c1c(CCc2ccccc2)nc2cncnc2n1-c1ccccc1	-5%
c1ccc2c(c1)oc1c(NCCN3CCOCC3)ncnc12	-8%
O=C(O)/C=C\c1ccc(Cn2ccnc2)cc1	6%[12.8 µM]
Cc1ccc2cc(CN(CCCN(C)C)C(=O)NCc3ccccc3)c(=O)[nH]c2c1C	56%
O=C(O)C1C2C=CC(C2)C1C(=O)Nc1ccc(C(=O)N2CCCCC2)cc1 (stereo not drawn)	2%
CCCCCCCN	4%
C[C@H]1CN(CCO)CCN1c1ccccc1	8%[5.75 µM]
N#Cc1c(/N=C/c2ccco2)oc(-c2ccccc2)c1-c1ccccc1	-18%
Cc1ccc2c(c1)CCCN2C(=O)c1c(C)noc1C	8%
CC(=O)Nc1cccc(N2C(=O)CC(Cc3ccccc3)C2=O)c1 (stereo not drawn)	12%
CS(=O)(=O)c1ccc(Cn2c3c(c4cc(F)cc(F)c42)CCC[C@H]3CC(=O)O)cc1	91%
O=C(Nc1ccc2c(c1)OCCO2)NC1CCCCC1	0%
CN1CC(=O)N(CCOc2ccccc2)C1=O	0%
C#CCSc1nc(-c2cccs2)ccc1C#N	-2%
COc1ccc(S(=O)(=O)N2CC(O)CC2C(=O)OCC(=O)Nc2ccc(Cl)cn2)cc1 (stereo not drawn)	54%
CCC(C)(C)n1nnnc1C(c1ccc(C)cc1)N1CCCC1 (stereo not drawn)	28%

Continued:
SMILES	AmpC nodet inh
COc1ccc(C(=O)N(CCCO)C(C)C(=O)NC2CCCCC2)cc1OC (stereo not drawn)	8%
COc1cc(C2C(C#N)=C(C)NC3=C2C(=O)CC(C)(C)C3)cc(OC)c1O (stereo not drawn)	-13%
Cc1cc(C(=O)N2CCN(c3ccccc3)CC2)no1	-2%
CC1=C(C(=O)OC2CCCCC2)C(c2ccco2)C2=C(CC(C)(C)CC2=O)N1 (stereo not drawn)	6%
O=C(c1cccs1)N1CCN(S(=O)(=O)Cc2ccccc2)CC1	11%
C=C(C)COc1ccc(-c2[nH]ncc2Oc2ccccc2OC)c(O)c1	-20%
CCCCn1c(SCC(=O)N2CCCCC2)nc2cc(S(N)(=O)=O)ccc21	8%
CN(C)Cc1ccccc1-c1cc(NCc2ccccc2)ncn1	20%
O=C(Nc1cnn(Cc2ccc(Cl)c(Cl)c2)c1)c1nc2ncccn2n1	21%
CCCCn1c(=O)n(Cc2cccc(F)c2)c(=O)c2c1ncn2Cc1ccco1	57%
COCC1C2CC[C@H]3C(OCc4ccc(F)cc4C(F)(F)F)OC[C@]4(C)[C@H]3C2=C(CN4C(=O)OC(C)(C)C)[C@H](C)C1COC (stereo partly drawn)	146%
Nc1nc(CSc2nnnn2-c2ccc(F)c(Cl)c2)nc(N2CCOCC2)n1	28%
CCOC(=O)Cc1c(C)nc2c(-c3ccccc3)c[nH]n2c1=O	10%
Cl/C=C/CCl	-18%
COCc1nnc(NC(=O)c2ccc(NC(=O)C(C)C)cc2)s1	0%
Cc1ccc2c(CSc3nc4ccccc4c(=O)n3CCCO)cc(=O)oc2c1	69%
CSc1ccc(CNc2ccccn2)cc1	-6%
CCc1ccc(NC(=O)C2CC=CCC2C(=O)O)cc1 (stereo not drawn)	2%
COc1ccc(C2C(C#N)=C(N)Oc3n[nH]c(C)c32)cc1Cn1nnc2ccccc21 (stereo not drawn)	-1%
CCC(=NCc1ccccc1)C1=C(O)C(C(=O)OC)C(C)(C)CC1=O (stereo not drawn)	57%
O=C1CC(c2ccc(F)cc2)C2=C(CCCC2=O)N1 (stereo not drawn)	-18%

Shown with each value named: part of the list above
CCCCn1c(SCC(=O)N2CCCCC2)nc2cc(S(N)(=O)=O)ccc21
  AmpC nodet inh = 8%
CN(C)Cc1ccccc1-c1cc(NCc2ccccc2)ncn1
  AmpC nodet inh = 20%
O=C(Nc1cnn(Cc2ccc(Cl)c(Cl)c2)c1)c1nc2ncccn2n1
  AmpC nodet inh = 21%
CCCCn1c(=O)n(Cc2cccc(F)c2)c(=O)c2c1ncn2Cc1ccco1
  AmpC nodet inh = 57%

From PubChem BioAssay

A portion of the library; rates above refer to the full screens.
